Beta cell apopt: blocks beta cell apoptosis; INS-1E cytokine-induced death, ATP luminescence, 48 h; percent of positive-control rescue, neutral wells zero; protection from apoptosis, % (test concentration not listed); 300,000 compounds, 0.8% hits; AID 435005;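 active = all replicates at 75% or more, or half of them and the mean; inconclusive = half reach 75% but not the mean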;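 also: 0% = cytokine-treated negative control wells and 100% = positive control rescue; higher means more ATP so stronger rescue from cytokine killing; wells of about 40 µL received 100 nL stock; the first replicate is given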
RanGTP-Imp inh: disruptors of Ran-importin-beta complex formation – biochemical, FRET, CFP-Ran, YFP-importin-beta, homogeneous, primary screen; cell-free CFP-Ran/YFP-importin-beta FRET ratio; inhibition, % (no concentration beside the values); 300,000 compounds, 1.1% hits; AID 2216;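 active = most replicates above 15%; inconclusive = exactly half above 15%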;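 also: 0% = DMSO wells and 100% = Ran loaded with GDP instead of GTP; wells of about 40 µL received 100 nL stock; the first replicate is given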
T cruzi repl: T. cruzi replication inhibition; T. cruzi beta-gal in NIH3T3, luminescence, 90 h; inhibition, % (no concentration beside the values); 300,000 compounds, 1.4% hits; AID 1885;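 active = mean inhibition across valid replicates above about 55%, limit read from the data; inconclusive = mean below that limit but half or more replicates reach it; inactive = mean below it, under half of replicates reach it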;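 also: signal also drops with host cell toxicity which is not excluded here; 0% = plate median of DMSO wells and 100% = zero luminescence signal; higher percent means less beta-gal luminescence so fewer parasites; stock transfer was 50 nL into about 50 µL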
Calb FLC: C. albicans growth modulation with fluconazole; 300,000 compounds, 0.57% hits; growth inhibition, % (no concentration beside the values); C. albicans CaCi-2 (fluconazole-resistant clinical isolate) + fluconazole, Alamar Blue growth, 48 h;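 active = most replicates above 75%; inconclusive = exactly half above 75%; inactive = most below 75%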;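 also: all wells also contain fluconazole at 8 µg/ml as a sub-toxic cotreatment; 0% = median of DMSO wells and 100% = median of geldanamycin control wells; wells of about 8 µL received 7.5 nL stock; the first replicate is given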
MLL AF4-AF9 inh: MLL-AF4/AF9 protein interaction inhibition; P42568; AlphaScreen, biotin-AF4 peptide binding to FLAG-AF9; inhibition, % at 10 µM; 350,000 compounds, 0.47% hits;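 active = every replicate reaching a set inhibition limit, whatever the replicate mean, cut at about 25% in these data; inconclusive = mean inhibition reaches that limit but some replicates miss it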;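 also: 0% = plate neutral control median and 100% = total signal loss; the record names both 10 and 1 µM as test concentration; the first replicate is given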
Target sequence (P42568 whole entry, looked up): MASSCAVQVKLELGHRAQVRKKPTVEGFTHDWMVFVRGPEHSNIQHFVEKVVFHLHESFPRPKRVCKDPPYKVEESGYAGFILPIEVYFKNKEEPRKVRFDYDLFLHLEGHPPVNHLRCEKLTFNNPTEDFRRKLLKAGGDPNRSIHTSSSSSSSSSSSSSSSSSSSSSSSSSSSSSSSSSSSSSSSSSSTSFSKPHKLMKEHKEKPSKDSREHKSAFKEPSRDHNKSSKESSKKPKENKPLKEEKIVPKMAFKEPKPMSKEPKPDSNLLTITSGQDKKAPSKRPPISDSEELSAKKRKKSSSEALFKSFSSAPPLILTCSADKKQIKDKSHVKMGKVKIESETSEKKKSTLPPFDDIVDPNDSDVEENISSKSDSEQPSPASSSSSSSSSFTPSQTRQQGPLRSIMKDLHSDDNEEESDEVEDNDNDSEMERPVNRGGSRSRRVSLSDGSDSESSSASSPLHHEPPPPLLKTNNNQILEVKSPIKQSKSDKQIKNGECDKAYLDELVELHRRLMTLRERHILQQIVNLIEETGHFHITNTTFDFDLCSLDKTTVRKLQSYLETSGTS
Ecoli rRNA inh: inhibitors of bacterial rRNA selective over humanized ribosomes | AID 720706 | E. coli WT GFP vs humanized-ribosome RFP mutants, fluorescence, 24 h; stronger effect = lower value; DMSO median 0, no signal -100 | 350,000 compounds, 1.6% hits | GFP signal change (wild-type ribosome), % (concentration not given with the values);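 active = significant combined selectivity score with lowered wild-type GFP, culture density cut under 30%, mutant RFP and density less affected; inactive = any of these conditions unmet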; also: one replicate is shown; some compounds called inactive have numbers as strong as hits
ALR inh: blocks human ALR sulfhydryl oxidase activity; 290,000 compounds, 3.8% hits; AID 485317; inhibition, % (test concentration not listed); P55789; purified ALR, DTT oxidation, H2O2 HRP-luminol luminescence;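 active = mean and each replicate at 75% or more; inconclusive = only one of the two met; inactive = neither met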;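 also: stock transfer was 7.5 nL into about 7.5 µL; 0% = neutral wells and 100% = wells with inactivated enzyme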
Target sequence (P55789 whole entry, looked up): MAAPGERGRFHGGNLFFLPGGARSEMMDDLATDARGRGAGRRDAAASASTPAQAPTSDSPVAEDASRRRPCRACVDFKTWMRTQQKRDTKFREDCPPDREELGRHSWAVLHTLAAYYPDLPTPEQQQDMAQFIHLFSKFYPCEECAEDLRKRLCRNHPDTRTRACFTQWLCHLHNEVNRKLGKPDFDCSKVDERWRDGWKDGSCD
FGF22 binding: FGF22 (human) thermal shift binding. Q9HCT0. recombinant FGF22 thermal shift, SYPRO orange fluorescence; percent of sucrose octasulfate shift, DMSO zero. calls only at 9.99 µM. 340,000 compounds, 1.5% hits. AID 651658;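 active = melting point raised past a set limit in the mean and every replicate; inconclusive = no clear call; three in four hits are not shown here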
Target sequence (Q9HCT0 whole entry, looked up): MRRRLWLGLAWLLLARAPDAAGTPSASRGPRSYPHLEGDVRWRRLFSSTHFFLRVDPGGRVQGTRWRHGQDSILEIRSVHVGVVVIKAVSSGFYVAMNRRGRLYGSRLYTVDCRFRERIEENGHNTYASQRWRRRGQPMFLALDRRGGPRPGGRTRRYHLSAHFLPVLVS
Ecoli rRNA inh OD600: also measured in Ecoli rRNA inh; calls as there; OD600 change, %; measured here: OD600 growth;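 optical density of the mix in the first replicate; 0 = DMSO median and -100 = no signal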
Ecoli rRNA inh RFP: further read-out of Ecoli rRNA inh, marked with its call; RFP signal change, %; measured here: RFP humanized mutant strains;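 first replicate; 0 = DMSO median and -100 = no signal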
Numbers without * were called inactive; i = inactive; ? = inconclusive; . = not tested or not shown. A portion of the library; rates above refer to the full screens.

Below each SMILES: MLL AF4-AF9 inh, T cruzi repl, Ecoli rRNA inh RFP, ALR inh, Calb FLC, Ecoli rRNA inh OD600, Ecoli rRNA inh, Beta cell apopt, FGF22 binding, RanGTP-Imp inh
- Cc1[nH]n(-c2ccccc2)c(=O)c1/C=N/NC(=O)c1ccoc1C
→ ., -43.0, ., ., 15.0, ., ., 106.7*, ., -0.5
- Nc1c(C(=O)Nc2ccc3c(c2)OCCO3)nnn1CCc1ccccc1
→ -0.5, -32.5, 4.7, ., 0.8, -14.8, -10.2, 6.8, i, -1.3
- COc1ccc(C(=O)c2ccc(Br)cc2)cc1
→ ., -17.6, ., -1.8, 16.3, ., ., -2.6, ., 0.1
- O=C(CCN1C(=O)c2ccccc2S1(=O)=O)N1CCN(c2ccccc2F)CC1
→ 0.2, 0.0, -2.1, -8.7, -0.5, -0.1, -2.3, -4.6, i, -1.0
- O=c1[nH]c(NCc2ccco2)nnc1Cc1ccccc1Cl
→ ., -42.9, ., -0.4, -13.7, ., ., 7.3, ., -3.9
- Cc1nc2cc(NC(=O)Nc3ccc(Br)cc3)ccc2o1
→ -0.5, 12.8, -0.8, -5.6, -20.6, -1.5, -0.5, 0.2, i, 3.5
- CC1=C(C(=O)OCC(C)C)C(c2ccccc2Cl)NC(=O)N1C (stereo not given)
→ -6.9, 5.9, -5.7, -10.7, 14.5, -67.8, -45.0, -18.1, i, 0.5
- CCC(C)NCCOc1ccc(C(C)(C)c2ccccc2)cc1 (stereo not given)
→ 5.1, 65.2*, -15.6*, -7.3, -47.4, -27.0*, -53.3*, 3.6, i, 7.6
- Cc1c(NC(=O)c2ccc(N3C(=O)C4C5C=CC(C5)C4C3=O)cc2)c(=O)n(-c2ccccc2)n1C (stereo not given)
→ ., -12.8, ., -7.2, 10.4, ., ., -10.7, ., 2.7
- CC(=O)c1cc2c(cc1NC(=O)Cn1nc(-c3ccc(F)cc3)ccc1=O)OCO2
→ 0.6, 8.4, -0.1, -2.0, 8.0, 0.7, -0.1, -1.9, i, -0.7
- CCOC(=O)C1(CC2CCCCO2)CCN(S(=O)(=O)c2ccccc2)CC1 (stereo not given)
→ 0.3, 3.8, -0.9, -14.8, 3.6, -21.6, -16.9, ., i, 7.2
- Cc1cc(C(=O)Nc2ccncc2)ccc1[N+](=O)[O-]
→ 0.3, ?, 0.0, -15.4, -7.4, 17.8, 2.2, 2.6, i, 0.2
- CCSCCOC(=O)C1=C(C)NC(=O)NC1c1ccc2c(c1)OCO2 (stereo not given)
→ 2.4, -16.8, -0.6, ., -3.6, -8.0, -3.3, -2.2, i, 0.1
- O=C1CC(c2ccccc2)=NN1c1nc(-c2ccccc2)cs1
→ -1.6, -6.1, 11.6, ., ?, 0.5, 3.3, -1.4, i, -2.4
- CC(Sc1nc(=O)cc(N)n1CCc1ccccc1)C(=O)NCc1ccccc1 (stereo not given)
→ -1.7, -3.4, ., -10.6, 14.1, ., ., ., i, ?
- CCn1nnnc1-c1ccc(OC)c(S(=O)(=O)Nc2ccc(OC)cc2)c1
→ -4.8, -4.3, 1.8, 0.0, -1.1, 1.3, 19.1, 3.6, i, 2.8
- COc1ccccc1-n1ccnc1SCC(=O)NCc1ccco1
→ -1.1, -5.4, -1.6, 1.8, -14.2, 4.7, 6.5, -5.4, i, 4.7
- Cc1ccc(N=Nc2[nH]c3ccccc3c2O)cc1
→ 3.5, 6.1, -0.5, -1.9, 0.7, 5.5, 11.8, -4.6, i, -5.2
- COc1ccccc1OCC#CCNC1CCCCC1C (stereo not given)
→ -3.3, -0.1, -1.9, -13.6, -7.6, 13.8, 19.4, -3.2, i, -1.7
- COc1ccc(C(C)(C)C)cc1NC(=O)C1CCCO1 (stereo not given)
→ -1.1, 3.8, 3.9, -9.8, 0.5, 8.5, 5.7, 1.5, i, 4.1

A draw from above in order of formula weight, largest number first:
Below each SMILES: MLL AF4-AF9 inh, T cruzi repl, Ecoli rRNA inh RFP, ALR inh, Calb FLC, Ecoli rRNA inh OD600, Ecoli rRNA inh, Beta cell apopt, FGF22 binding, RanGTP-Imp inh
- Nc1c(C(=O)Nc2ccc3c(c2)OCCO3)nnn1CCc1ccccc1
→ -0.5, -32.5, 4.7, ., 0.8, -14.8, -10.2, 6.8, i, -1.3
- COc1ccccc1-n1ccnc1SCC(=O)NCc1ccco1
→ -1.1, -5.4, -1.6, 1.8, -14.2, 4.7, 6.5, -5.4, i, 4.7
- Cc1ccc(N=Nc2[nH]c3ccccc3c2O)cc1
→ 3.5, 6.1, -0.5, -1.9, 0.7, 5.5, 11.8, -4.6, i, -5.2

Next part
Below each SMILES: MLL AF4-AF9 inh, T cruzi repl, Ecoli rRNA inh RFP, ALR inh, Calb FLC, Ecoli rRNA inh OD600, Ecoli rRNA inh, Beta cell apopt, FGF22 binding, RanGTP-Imp inh
- Cc1ccc(NC(=O)c2cc(NC(=O)CCCC(=O)O)ccc2Cl)cc1Cl
→ ., -5.9, ., 9.8, 3.0, ., ., -0.5, ., 0.4
- O=C(CCN1C(=O)c2ccccc2C1=O)N1CCCCCC1
→ ., -22.0, ., -8.5, 7.7, ., ., 2.2, ., 2.2
- CCOC(=O)C1=C(C)NC(C)=C(C(=O)OCC)C1C(=O)OCC(=O)NC1(C#N)CCCCC1
→ -4.9, -2.1, 1.8, 1.7, 3.8, -2.1, 0.8, 4.3, i, 5.3
- O=C1CCCCCCCN1Cc1ccccc1
→ 5.2, -2.3, -0.6, -3.4, 4.0, -9.5, 1.1, -5.9, i, 5.9
- COc1ccc(NS(=O)(=O)c2ccc3c(c2)NC(=O)CC(=O)N3)cc1OC
→ -1.9, -12.8, 0.7, -6.7, 14.2, 7.2, 16.9, -8.0, i, -2.4
- O=C(c1cc(-c2ccco2)nc2ccccc12)N1CCN(Cc2ccccc2)CC1
→ 0.9, ., -1.2, ., ., 7.6, -0.3, 1.3, i, .
- O=C(Nc1nc(-c2ccc(Oc3ccccc3)cc2)cs1)C1=COCCO1
→ ., 9.4, ., -13.7, 22.5, ., ., -1.0, ., -0.1
- COc1ccccc1NCC(=O)N/N=C/c1cccnc1
→ ., -8.9, ., ?, -1.1, ., ., -0.3, ., -0.9
- COc1ccc(C2C3=C(CC(C)(C)CC3=O)OC(N)=C2[N+](=O)[O-])cc1 (stereo not given)
→ -4.0, -12.3, -1.0, -3.0, ?, 3.3, 1.7, -3.7, i, 4.1
- O=C(OCC(=O)N1CCCC1)c1ccccc1C(=O)c1ccccc1
→ -0.6, ., -1.7, -4.0, ., 5.2, 11.6, -1.0, i, .
- Cc1cc2oc(C(=O)Nc3ccc(S(=O)(=O)N4CCCC(C)C4)cc3)cc(=O)c2cc1Cl (stereo not given)
→ ., 2.0, ., ., -9.6, ., ., -6.7, ., -2.1
- Cc1c(C(=O)NC(C)c2ccncc2)oc2ccccc12 (stereo not given)
→ 4.2, 1.3, 3.5, -1.4, -12.4, -17.7, -11.9, 2.3, i, -0.9
- O=C1C(C=Nc2ccc(F)cc2)=C(O)c2ccccc21
→ 0.4, -16.5, 2.8, -5.7, ?, 33.1, 11.0, -0.4, i, 3.2
- O=C(COc1ccccc1Cl)NC(=S)N1CCc2ccccc21
→ 6.8, 3.6, -16.1*, -5.6, 5.2, -14.1*, -51.9*, -5.7, i, 2.4
- Cc1ccccc1N1OC2C(=O)N(c3ccc(F)cc3)C(=O)C2C1c1ccccn1 (stereo not given)
→ ., -10.7, 9.0, -8.9, 5.6, 10.3, 9.1, -5.9, ., 1.4
- CCN(CC)CCCn1c2c(c(SCC(=O)Nc3nccs3)nc1=O)CCC2
→ -8.0, 4.8, 0.9, -403.4, -5.3, 6.6, 1.6, -2.9, i, -3.9
- O=C(c1ccc(Cl)cc1)[C@@H]1[C@@H]2C(=O)N(c3ccc(Cl)cc3)C(=O)[C@@H]2C2c3ccccc3C=NN21 (stereo not given in full)
→ -2.5, -4.1, 4.9, 0.7, -7.4, 2.6, 7.5, 15.4, i, -3.3
- CC1CC2=C(CC1/C=N/NC(N)=S)C(C)(C)CCC2 (stereo not given)
→ 1.8, 42.6, -0.1*, 3.8, 26.2, 0.8*, -18.2*, 60.1, i, 3.5
- CC(=O)Oc1ccc(C(=O)Nc2cccc(C(=O)NC(C)(C)C)c2)cc1
→ 0.0, 11.6, -5.0, 2.6, -11.4, -32.5, -24.8, -5.1, i, -2.5
- CC(C)=CCCC(C)CN1CCC(n2nccc2NC(=O)C2CCCC2)CC1 (stereo not given)
→ -0.3, 51.3, 0.8, -5.8, -8.4, 0.9, 8.8, ., i, -3.4
- O=C(Nc1ccc(Cl)c(Cl)c1)N1CCSCC1
→ ., -5.1, ., ., -10.5, ., ., -9.6, ., -1.6
- O=C(N/N=C/c1ccc2ncccc2c1)c1ccco1
→ -5.3, -18.9, -3.5, 6.7, ., -17.1, -3.6, 20.2, i, .
- COc1ccc(Oc2nc3c(c(=O)n(C)c(=O)n3C)n2C)cc1
→ -11.9, 15.3, 1.2, 1.6, -4.7, 3.7, 13.9, -1.8, i, 4.5
- CCc1nnc(SCC(=O)NC2CCCCC2)nc1CC
→ ., 3.7, ., -2.2, -4.0, ., ., -3.0, ., ?
- Cc1ccc(C(c2sc3nc(C)nn3c2O)N2CCN(c3ccccc3)CC2)cc1 (stereo not given)
→ ., 9.0, ., ., 2.2, ., ., -8.3, ., -0.6
- C/C(CC(=O)Nc1cccc(Cl)c1C)=N\NC(=O)Cc1csc(N)n1
→ -8.0, -9.3, 0.7, -0.7, ?, 9.2, 12.7, 4.4, ., 2.7
- CCc1ccc(CN(C)C(=O)c2cc(COc3ccc(-n4cncn4)cc3)on2)cc1
→ -1.3, 32.5, 5.6, -3.8, 17.9, -10.4, 1.4, 6.0, i, -0.6
- CC(C)(C)NC(=O)CSc1nnc(NC(=O)CCc2ccccc2)s1
→ -2.0, -6.3, 1.1, ., 8.0, 1.8, 3.1, -5.7, i, 2.8
- CC(NC(=O)Cc1ccccc1)c1ccc(F)cc1 (stereo not given)
→ 0.8, -20.4, 0.4, -3.3, 1.5, 4.3, -0.1, -2.7, i, 3.6
- COc1ccc(CNC(=O)N2CCN(c3ccc(F)cc3)CC2)cc1
→ -0.9, -10.8, -1.2, 0.9, 3.3, 5.9, 4.1, -2.8, i, 4.9
- CCOC(=O)C1CCN(CC(O)COCc2cccs2)CC1 (stereo not given)
→ 2.8, 11.9, -0.7, -7.3, 5.2, 10.3, 8.4, 0.1, i, -1.3
- CCc1cccc(CC)c1NC(=O)COC(=O)c1cccc(S(=O)(=O)N2CCc3ccccc3C2)c1
→ -1.9, -17.1, ., -2.3, 3.7, ., ., -3.3, i, 8.1
- O=C(NCc1ccccn1)Nc1ccc2c(c1)OCO2
→ ., -1.4, ., -18.3, -3.2, ., ., -2.3, ., ?
